Bioassay records as filed in PubChem.
Autofluor counter: compound fluorescence in toxin protease inhibitor counterscreen; compound autofluorescence counterscreen, microsphere flow cytometry; stronger effect = higher value; fluorescence intensity (no concentration beside the values); 3.1% of 360,000 active; AID 624483;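 active = at least 3 SD above the mean of all compounds, about 16000 in these data; inconclusive = too few beads counted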;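 also: 100 nL of 1 mM stock went into each well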
BJeLR viability: kills HRASV12-expressing BJeLR cells. BJeLR (HRASV12) viability, CellTiter-Glo ATP luminescence, 48 h; reference of the scale not given here. inhibition, % (no concentration beside the values). 0.17% of 300,000 active. AID 1554;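 active = replicate mean above 50%; inconclusive = above 50% but judged a plate artefact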;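 also: 50 nL library stock added to about 25 µL; numbers are from one replicate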
Mtb hypoxia rep: Mtb hypoxia fluorescent reporter inhibition; fluorescence inhibition, % (concentration not given with the values); AID 1159583; M. tuberculosis hypoxia-regulated fluorescent reporter, fluorescence; 0.1% of 300,000 active;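 active = 35 to 45% if threefold the growth effect, above 45% if 1.5-fold the growth effect; inactive = the rest, general growth blockers included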;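 also: wells of about 50 µL received 100 nL stock; 0% = vehicle wells and 100% = reference inhibitor wells; whole bacteria with a GFP reporter of the hypoxia response; strong numbers were not always called active; many hits fall short of the cut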
Sa ugtP lethal: kills S. aureus RN4220 lacking UgtP | S. aureus RN4220 ugtP deletion, OD600 growth, 16 h; some inactives read as strong as hits | growth inhibition, % (test concentration not listed) | 0.54% of 330,000 active;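 active = z-score under -3 and OD600 up to 0.15 on both plates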;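 also: plate controls were untreated wells for no effect and antibiotic for full effect; wells of about 80 µL received 100 nL stock; the first replicate is given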
Sa RN4220 lethal: S. aureus RN4220 growth inhibition; 0.33% of 330,000 active; OD600, 16 h; inhibition, % (concentration not given with the values);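 active = z-score of -3 or lower and OD600 up to 0.18 on both plates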;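 also: plate controls were untreated cells for no effect and reference antibiotic for full effect; stock transfer was 100 nL into about 80 µL; one replicate is shown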
PrP UTR inh: inhibition of PrP 5' UTR reporter expression. cell-based PrP 5' UTR mRNA reporter, plate reader. inhibition, % (concentration not given with the values). 0.35% of 340,000 active;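 active = every replicate at 50% or more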;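 also: 0 = median of the neutral control wells; tested in H4 reporter cells; numbers are from one replicate; inactives centre near -14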
Mtb hypoxia rep growth: recorded beside Mtb hypoxia rep, whose call it bears; growth inhibition, %; measured here: M. tuberculosis growth (absorbance);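 0% = vehicle and 100% = reference antibiotic; read after six days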
The depositor's hits bear a star; ? = inconclusive; . = no result given.

SMILES	Autofluor counter	BJeLR viability	Mtb hypoxia rep	Mtb hypoxia rep growth	Sa ugtP lethal	Sa RN4220 lethal	PrP UTR inh
COc1cc(C(=O)N(Cc2cc3ccccc3[nH]c2=O)CC2CCCO2)cc(OC)c1OC (stereo not given)	15522	-1	-5	0	8	0.2	-6
O=c1cc[nH]c2cc(Cl)ccc12	4117	5	12	7	3	6.7	-26
O=[N+]([O-])c1cccc(C=NNc2nc(NCc3ccccc3)nc(N3CCOCC3)n2)c1O	.	.	8	14	1	6.0	.
Cc1cc(C)cc(C(=O)N(CCc2ccccc2)C2CC3CCC(C2)N3C)c1 (stereo not given)	3791	7	6	-1	3	-0.3	-26
CCOC(=O)COc1cccc(C2NC(=O)c3ccccc3O2)c1 (stereo not given)	4074	-2	17	15	7	0.0	-22
COc1ccc(C2/C(=C(/O)c3ccccc3)C(=O)C(=O)N2c2ncccn2)cc1OC (stereo not given)	2038	1	.	.	.	.	-18
O=C(Nc1ccc(SC(F)F)cc1)C12CCC(CC1)C2	1970	3	-11	-1	1	1.3	-62
Cc1nn(Cc2ccccc2)c(Cl)c1C(=O)OCC(=O)NCC1CCCO1 (stereo not given)	4135	4	0	-1	-2	9.3	-8
CC1(C)CC2CC(C)(CN2C(=O)CCCN2C(=O)c3ccccc3C2=O)C1 (stereo not given)	.	-9	5	7	-4	-1.7	-22
COc1ccc(C(Nc2ccccn2)c2oc(CO)cc(=O)c2O)cc1 (stereo not given)	2513	-3	-3	-4	0	2.9	62*

Overlap with the part before: 4 compounds; new compounds follow.
SMILES	Autofluor counter	BJeLR viability	Mtb hypoxia rep	Mtb hypoxia rep growth	Sa ugtP lethal	Sa RN4220 lethal	PrP UTR inh
O=C(Nc1ccc(SC(F)F)cc1)C12CCC(CC1)C2	1970	3	-11	-1	1	1.3	-62
Cc1nn(Cc2ccccc2)c(Cl)c1C(=O)OCC(=O)NCC1CCCO1 (stereo not given)	4135	4	0	-1	-2	9.3	-8
CC1(C)CC2CC(C)(CN2C(=O)CCCN2C(=O)c3ccccc3C2=O)C1 (stereo not given)	.	-9	5	7	-4	-1.7	-22
COc1ccc(C(Nc2ccccn2)c2oc(CO)cc(=O)c2O)cc1 (stereo not given)	2513	-3	-3	-4	0	2.9	62*
Cc1ccc(C(=O)NCc2ccncc2)cc1S(=O)(=O)Nc1cccc(C)c1C	5374	-8	1	8	2	1.5	-20
CC(=NNc1ccc(Cl)c(C(=O)O)c1)c1ccc[nH]1	.	.	4	0	-4	4.4	.
CCN(CCCNC(=O)CSc1cc(=O)n(C)c2cc(Cl)ccc12)Cc1ccccc1	2877	4	16	9	8	4.7	-7
O=C(Nc1ccn(-c2ccccc2)n1)c1ccc(Cl)cc1	1932	4	13	8	10	6.8	-23
O=C(O)/C=C\C(=O)N1CCc2ccccc21	2144	1	11	4	-1	-0.7	-17
CC(OC(=O)c1n[nH]c2ccccc12)C(=O)Nc1ccccc1[N+](=O)[O-] (stereo not given)	.	.	8	2	-2	5.4	-9
NS(=O)(=O)c1ccc(CCNC(=O)/C=C/c2ccc([N+](=O)[O-])cc2)cc1	3374	6	-17	12	-8	-2.0	-10
N#CC1=C(N)OC2=C(C(=O)CCC2)C1C1C=CCCC1 (stereo not given)	2225	1	.	.	12	0.8	-13
S=C(NCCCN1CCOCC1)Nc1ccc(Cl)cc1Cl	2477	5	1	-6	2	2.0	-16
Cc1cc(C)cc(OCc2nnc(SCC(=O)Nc3ccccc3)o2)c1	9262	9	0	5	-6	-0.6	-18
CC(C)OP(=O)(OC(C)C)C(O)c1cccnc1 (stereo not given)	10779	-4	0	7	-2	4.5	-21
CCCCC(=O)c1ccc(O)cc1O	4854	-7	.	.	11	0.3	-25
CN=C1CC(SC)=C1c1ccc(C)cc1	3002	-1	9	13	0	-3.0	-13
COc1ccc(N2C(=O)C3C4C=CC(C5CC45)C3C2=O)c([N+](=O)[O-])c1 (stereo not given)	3223	9	11	15	0	-11	-23
CCc1cc2c(=O)c(-c3cnn(-c4ccccc4)c3)coc2c(CN2CCOCC2)c1O	3918	-7	-13	-1	-7	-0.9	-10
Cc1nc(NCCc2ccc(S(N)(=O)=O)cc2)c2c(C)c(C)sc2n1	2785	6	.	.	10	13	-7
O=C(N/N=C/c1ccc(N2CCOCC2)cc1)C1CC1	3231	0	.	.	.	.	-18
Cc1ccccc1C(=O)NC1CCN(Cc2nnnn2Cc2ccc(F)cc2)CC1	5546	3	-2	7	-2	4.5	-28
CC1(C)CC(=O)C=C(Nc2cc(-c3ccccc3)[nH]n2)C1	21249*	3	6	-1	-2	-0.7	-15
Cc1nc(-c2cccc(S(=O)(=O)N3CCCC(C)C3)c2)cs1 (stereo not given)	2919	-1	1	-1	-8	4.2	-7
CCC(Cc1ccccc1)NS(=O)(=O)c1c(C)nc2sccn2c1=O (stereo not given)	6388	-6	9	8	-3	0.9	-11
O=C1CC(c2ccco2)CC(O)=C1C=NCCN1CCN(C(=S)Nc2ccccc2)CC1 (stereo not given)	4409	0	9	7	1	4.6	-14
O=C(CC1Sc2ccccc2NC1=O)Nc1cccc(C(=O)O)c1 (stereo not given)	5378	7	9	6	10	3.0	2
COc1cccc(-c2onc3ccc(C4(C)OCCO4)cc23)c1	4496	2	3	0	-6	10	-11
Cc1ccc(NC(=O)Cn2nc(C)c(S(=O)(=O)N(C)C)c2C)cc1	6166	-8	0	2	3	6.5	2
CC(=NN=C(N)N)c1ccc(Cl)cc1Cl	.	.	-4	7	15	-7.0	.
CCC(=O)c1ccc(OCC(=O)N2CCN(c3ncccn3)CC2)cc1	?	-2	1	8	4	2.3	-12
CC(C#N)(NC(=O)COC(=O)c1ccccc1NCCO)C1CC1 (stereo not given)	?	-6	5	8	-3	0.9	-2
CCOC(=O)c1ccc(NC(=O)CN(Cc2ccc(Cl)cc2)S(C)(=O)=O)cc1	16051	-8	-3	-1	14	7.7	-10
Cc1[nH]c2ccccc2c1C(=O)/C=C/c1ccccc1Cl	2218	1	4	-3	-14	-2.6	-71
N/C(=N\c1nc2c(c(=O)[nH]1)CCCC2)Nc1ccccc1	3574	10	18	8	6	3.6	-20
CC1=C(C(=O)NC(C)c2ccccc2)C2(CCC(C)CC2)OC1=O (stereo not given)	4598	0	10	0	2	3.8	-15
CCN1C(=O)/C(=C/c2cccs2)SC1=NS(=O)(=O)c1ccc(C)cc1	.	.	6	-2	-3	4.1	.
O=C(Cc1cc(=O)[nH]c(=O)[nH]1)N1CCC(Cc2ccccc2)CC1	4065	-8	9	11	6	0.2	3
O=C(NCc1ccccc1)c1nc(-c2cccs2)no1	2518	.	1	-3	-8	2.1	-30
O=C(CSC1=Nc2ccccc2C2=NC(CC(=O)N3CCN(c4ccccc4)CC3)C(=O)N12)NCC1CCCO1 (stereo not given)	2313	0	-6	6	-8	6.4	-19
O=C(CC1Nc2c3ccccc3nc(=S)n2C1=O)NC1CCCCC1 (stereo not given)	.	-1	9	6	3	7.2	.
CC(=NOCc1nc2ccccc2c(=O)n1N=Cc1cc(C)cc([N+](=O)[O-])c1O)c1ccccc1	.	.	14	1	3	1.6	.
CCn1c(SCC(=O)NC2CC2)nnc1-c1ccccc1OC	5233	2	6	1	3	2.5	3
CCCn1c(=O)c2sccc2n2c(CCCC(=O)NCc3ccco3)nnc12	5548	0	-2	3	-5	-0.5	-20
O=C(COc1ccc(/C=N/NS(=O)(=O)c2ccccc2)cc1)NCc1ccccc1	2761	6	.	.	.	.	-3
Cc1cc(Nc2n[nH]c(N)c2C#N)ccc1F	2491	0	14	11	5	3.5	-17
CSc1cccc(NC(=O)CSc2nnc(C)s2)c1	16404*	5	-3	7	4	1.5	-18
O=[N+]([O-])c1ccc2oc(-c3cccc(O)c3)nc2c1	4837	9	8	9	9	34	-86
Clc1ccccc1Sc1cnc2ccccc2n1	?	-7	9	4	15	3.1	-21
O=C1CCCC2=C1C(c1ccc(O)c(O)c1)c1c(ccc3ncccc13)N2 (stereo not given)	4783	5	.	.	.	.	-17
N#CCC(CNc1ncc(C(F)(F)F)cc1Cl)OC(=O)c1c(F)cccc1F (stereo not given)	10315	-6	2	-1	21	2.9	-18
O=C(COC(=O)c1ncc(Cl)c(Cl)c1Cl)Nc1cccnc1Cl	4775	-13	1	-10	9	3.5	-8
O=C(CCc1nnc(CCCc2ccccc2)o1)N1CCCCCC1	4341	5	-6	7	-1	3.3	-88
COc1ccc(-n2ncc3c(NCc4cccs4)ncnc32)cc1	13014	3	16	5	0	4.1	-116

The results go on:
SMILES	Autofluor counter	BJeLR viability	Mtb hypoxia rep	Mtb hypoxia rep growth	Sa ugtP lethal	Sa RN4220 lethal	PrP UTR inh
CN(CCc1ccccn1)C1CCCN(S(=O)(=O)c2ccccc2Cl)C1 (stereo not given)	5942	-2	13	6	8	2.8	-10
Cc1ccc(N(C)S(=O)(=O)c2cccc(C(=O)NCC(c3cccs3)N3CCOCC3)c2)cc1 (stereo not given)	?	1	-5	10	-4	3.7	-11
O=C(COC(=O)c1ccc(S(=O)(=O)Nc2ccccc2)cc1)NCCN1C(=O)CSC1=O	3907	-1	11	15	0	2.7	-15
O=C(c1ccc2nc(N3CCOCC3)sc2c1)N1CCN(c2ccc(Cl)cc2)CC1	6996	-4	15	6	9	-1.2	-18
Cc1cccc(-c2noc(CCC(=O)NC3CCCCC3)n2)c1	5316	-4	10	-11	12	-5.0	-18
NC(=N[N+](=O)[O-])N1CCN(C(=O)c2ccccc2)CC1	.	.	13	12	-2	2.3	.
COc1cc2c(cc1NC(=O)c1cccc([N+](=O)[O-])c1)oc1ccccc12	2547	-2	.	.	-7	8.7	-8
CC(=O)NC(C(=O)c1ccccc1)C(=O)c1ccccc1	2660	8	6	0	1	2.0	-3
COc1ccc(C(=O)c2ccc(Br)cc2)c(OC)c1OC	3857	.	-5	6	6	5.8	-16
O=C(c1cc2cc(Cl)ccc2[nH]1)N1CCN(c2ccc(F)cc2)CC1	3036	-1	5	6	-8	-3.5	-10
Cc1ccc(Cl)cc1Nc1nc(-c2cccnc2)cs1	3086	-10	-4	-2	8	-9.9	-12
CC(C)(C)N(Cc1ccccc1)C(=O)c1ccc(Cl)cc1[N+](=O)[O-]	2242	-5	4	18	-4	7.4	-17
Cc1nnc(N(CCC#N)CCC#N)s1	3271	-4	-4	6	-7	-4.0	5
Cc1ccc(C(=O)Nc2cccc(C(=O)NCc3ccco3)c2)cc1	4982	3	.	.	-4	-0.7	-53
O=C(CSc1cccc2cccnc12)N/N=C/c1ccc(F)cc1	3578	-5	.	.	.	.	-17
CN/S(=N/S(=O)(=O)c1ccccc1)c1ccc(C)cc1 (stereo not given)	5383	-3	.	.	.	.	-18
COc1ccc2nc(-c3ccccc3)[nH]c2c1	7146	7	12	6	5	8.3	-77
CCOC(=O)Cc1nnc(Nc2cc(C)ccc2C)c2ccccc12	2145	2	-3	-18	4	-0.3	-25
COc1nc(Nc2cccc(C(F)(F)F)c2)nc(OC)n1	9068	0	4	4	-5	1.0	-13
Cc1ccc(S(=O)(=O)N/N=C2\C(=O)C3(C)CCC2C3(C)C)cc1 (stereo not given)	3168	4	.	.	.	.	-19

Two consecutive compounds from above, for reference:
SMILES	Autofluor counter	BJeLR viability	Mtb hypoxia rep	Mtb hypoxia rep growth	Sa ugtP lethal	Sa RN4220 lethal	PrP UTR inh
COc1nc(Nc2cccc(C(F)(F)F)c2)nc(OC)n1	9068	0	4	4	-5	1.0	-13
Cc1ccc(S(=O)(=O)N/N=C2\C(=O)C3(C)CCC2C3(C)C)cc1 (stereo not given)	3168	4	.	.	.	.	-19

The list goes on.
SMILES	Autofluor counter	BJeLR viability	Mtb hypoxia rep	Mtb hypoxia rep growth	Sa ugtP lethal	Sa RN4220 lethal	PrP UTR inh
O=C(NC1CCCC1)c1ccc2c(c1)N(Cc1ccc(F)cc1)CCS2	5899	8	6	6	3	2.6	2
COc1cc2c3nnc(-c4ccc(F)cc4)c-3cn(Cc3ccc(C)cc3)c2cc1OC	6236	36	-1	6	7	0.4	5
O=C(NC12CC3CC(CC(C3)C1)C2)N1CCN(C(=O)C2CCCO2)CC1 (stereo not given)	12170	-7	3	3	10	5.2	-14
O=C(NCc1cccs1)C1CCCN1C(=O)Nc1ccc(Cl)cc1 (stereo not given)	.	6	3	-1	-2	0.3	.
O=C(O)c1ccc(Sc2ccccn2)c([N+](=O)[O-])c1	3233	-8	2	1	0	2.1	-20
COc1cc([N+](=O)[O-])ccc1NC(=O)N1CCCCCC1	5508	-3	12	-7	-1	-0.3	-15
CCN(CC(=O)NCc1cccs1)C(=O)C(c1ccccc1)c1ccccc1	3804	-4	11	1	11	2.0	-25

No enrichment for hits. About 4% of those tested had a hit in this group.
